Bioassay records deposited in PubChem BioAssay by several laboratories.
ugtP null kill – kills S. aureus RN4220 lacking UgtP. S. aureus RN4220 ugtP deletion, OD600 growth, 16 h; some inactives read as strong as hits. growth inhibition, % (no concentration beside the values). 330,000 compounds, 0.54% hits. AID 1259309;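 active = z-score under -3 and OD600 up to 0.15 on both plates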;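 also: plate controls were untreated wells for no effect and antibiotic for full effect; wells of about 80 µL received 100 nL stock; the first replicate is given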
BJeLR lethal – BJeLR cell viability loss | BJeLR (HRASV12) viability, CellTiter-Glo ATP luminescence, 48 h; reference of the scale not given here | inhibition, % (no concentration beside the values) | AID 1554 | 300,000 compounds, 0.17% hits;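 active = replicate mean above 50%; inconclusive = above 50% but judged a plate artefact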;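 also: 50 nL library stock added to about 25 µL; numbers are from one replicate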
RN4220 kill – S. aureus RN4220 growth inhibition; OD600, 16 h; inhibition, % (no concentration beside the values); 330,000 compounds, 0.33% hits; AID 1259311;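 active = z-score of -3 or lower and OD600 up to 0.18 on both plates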;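 also: plate controls were untreated cells for no effect and reference antibiotic for full effect; stock transfer was 100 nL into about 80 µL; one replicate is shown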
PrP UTR inh – inhibition of PrP 5' UTR reporter expression | cell-based PrP 5' UTR mRNA reporter, plate reader | AID 488862 | 340,000 compounds, 0.35% hits | inhibition, % (concentration not given with the values);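 active = every replicate at 50% or more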;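 also: 0 = median of the neutral control wells; tested in H4 reporter cells; numbers are from one replicate; inactives centre near -14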
Autofluor counter – flagged as autofluorescent in microsphere protease counterscreen; compound autofluorescence counterscreen, microsphere flow cytometry; hits give high values; fluorescence intensity (test concentration not listed); 360,000 compounds, 3.1% hits; AID 624483;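 active = at least 3 SD above the mean of all compounds, about 16000 in these data; inconclusive = too few beads counted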;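 also: 100 nL of 1 mM stock went into each well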
Mtb hypoxia rep – reduces hypoxia-regulated biosensor signal in M. tuberculosis | M. tuberculosis hypoxia-regulated fluorescent reporter, fluorescence | fluorescence inhibition, % (concentration not given with the values) | 300,000 compounds, 0.1% hits | AID 1159583;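 active = 35 to 45% if threefold the growth effect, above 45% if 1.5-fold the growth effect; inactive = the rest, general growth blockers included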;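 also: wells of about 50 µL received 100 nL stock; 0% = vehicle wells and 100% = reference inhibitor wells; whole bacteria with a GFP reporter of the hypoxia response; strong numbers were not always called active; many hits fall short of the cut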
Mtb hypoxia rep growth – recorded beside Mtb hypoxia rep, whose call it bears; growth inhibition, %; measured here: M. tuberculosis growth (absorbance);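 0% = vehicle and 100% = reference antibiotic; read after six days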
* = called active by the depositor; ? = inconclusive; . = no result given.

SMILES	ugtP null kill	BJeLR lethal	RN4220 kill	PrP UTR inh	Autofluor counter	Mtb hypoxia rep	Mtb hypoxia rep growth
O=c1c2ccccc2nc(/C=C/c2ccc([N+](=O)[O-])cc2)n1CCCO	-17	8	2.7	3	8634	3	2
Cc1ccc(S(=O)(=O)N2CCCCC2)cc1NC(=O)Cn1cnc2c1c(=O)n(C)c(=O)n2C	5	.	3.9	-1	5399	5	3
CCCC(=O)N1CCCC(C(=O)c2cccc(OC(C)C)c2)C1 (stereo not given)	.	-5	.	-34	4156	.	.
C=C(C)C1Cc2cc3ccc(=O)oc3cc2O1 (stereo not given)	-3	1	9.2	-16	9057	11	2
COc1ccc(CCNC(=O)CNS(=O)(=O)c2ccc(Br)s2)cc1OC	11	-2	9.4	-32	10415	13	10
COc1ccc(CN2CCN(Cc3ccc4ccccc4c3)CC2)cc1OC	17	1	1.6	-27	3442	8	2
CCN1C(C#N)=C(C#N)N=C(C)CC1(C)C	2	-8	0.3	-26	4138	13	5
O=c1[nH]c2sc3c(c2c(=O)n1Cc1ccccc1)CCC3	3	-1	14	2	2711	-1	1
O=C(O)CCNc1nc(-c2ccccc2)nc2ccccc12	-4	-5	-0.2	-18	2521	.	.
CCCCc1ccc(S(=O)(=O)Nc2nnc(C)s2)cc1	-15	0	19	-8	3668	-8	0
O=C(Cc1ccc(F)cc1)Nc1cccc(-c2cn3c(n2)SCC3)c1	5	2	-10	-23	4632	8	-1
CCOC(=O)c1coc(CNC(=O)c2c(C)oc3c2CCCC3)c1	-2	-2	-5.1	4	2043	3	6
CS(=O)(=O)N(Cc1ccccc1)c1ccc(C(=O)N2CCN(c3cccc(Cl)c3)CC2)cc1	-14	-5	3.8	-9	11107	5	8
O=C(CSc1nc(-c2ccccc2)c(-c2ccccc2)[nH]1)NCc1ccco1	5	-3	-5.5	-15	23502*	10	8
COc1ccc(OC)c(C=NNC(=O)c2[nH]nc3c2CCc2ccccc2-3)c1	5	.	0.0	.	.	8	4
COc1ccc(S(=O)(=O)N2CCCCC2)cc1NC(=O)c1ccc(N2CCCC2=O)cc1	5	.	1.6	-16	3434	9	-2
O=C(Nc1ccc(Nc2ccccc2)cc1)c1ccc(Cl)cc1Cl	14	9	-0.2	.	6450	7	-3
COc1cccc(-n2nnc3c(=O)n(CC(=O)Nc4ccccc4C)cnc32)c1	-5	-7	-1.1	8	6249	4	3
CCC(=O)NC(c1ccco1)c1cc(Cl)c2ccccc2c1O (stereo not given)	2	.	16	-3	3920	-1	-12
Cc1ccc(-c2onc3ccc(C4(C)OCCO4)cc23)cc1	10	-6	2.4	6	3266	.	.
Brc1ccc(NCc2cccc3ccccc23)nc1	36	-5	-5.7	-11	?	19	0
O=C(c1ccccc1Cl)N1CCN(c2ncccn2)CC1	4	-4	3.5	.	6186	9	0
COc1ccccc1NC(=S)N1CCN(C(=O)c2ccco2)CC1	0	0	3.2	-28	5184	3	6
CCOc1ccc(CN(C)C(=O)c2ccc(NS(=O)(=O)c3ccc4[nH]c(=O)[nH]c4c3)cc2)cc1	9	-3	1.9	-7	5837	0	0
O=C(c1ccccc1)c1ccccc1NC(=O)C1CCCN1Cc1ccccc1 (stereo not given)	12	7	6.9	-26	6395	4	-3
COC(=O)c1cccc(NC(=O)CSc2nnc(C)n2C)c1	7	7	4.2	-13	4631	14	6
CCCN(CCC)Cc1c(C(=O)NN=Cc2ccc(Br)cc2)nnn1-c1nonc1N	3	.	6.5	.	.	15	6
CC(=O)c1cc(CN2CCN(Cc3ccc(C)cc3)C(CCO)C2)cs1 (stereo not given)	9	-9	3.2	-12	2185	14	8
CCOC(=O)C1=C(COC(=O)[C@@H]2CCCN2S(=O)(=O)c2ccc(C)cc2)NC(=O)NC1C (stereo not given in full)	6	4	1.2	-8	5849	7	-5
Cc1cccc(NC(=S)N(CCN2CCOCC2)Cc2cc3cc4c(cc3[nH]c2=O)OCCO4)c1	8	-1	-0.3	13	4696	6	3
COC(=O)C1CCN(C(=O)c2ccc(Cl)c(S(=O)(=O)NCc3ccco3)c2)CC1	-3	.	-1.3	-19	?	0	8
O=C(Nc1ccc2oc(=O)ccc2c1)c1ccc2ccccc2c1	10	-14	1.8	-49	5770	-2	-15
COC(=O)CCn1[nH]c(=O)c2ccccc2c1=O	6	5	2.8	-1	2912	3	-1
CCOC(=O)C1CCCN(C(=O)c2cncc(Br)c2)C1 (stereo not given)	0	6	1.3	-4	2835	.	.
O=C1NC(=O)C2(CCCc3ccc(N(CCCl)CCCl)cc32)N1 (stereo not given)	-1	.	1.2	5	3879	15	7
NC(=O)COc1ccc(/C=N/NS(=O)(=O)c2ccccc2)cc1	.	3	.	-9	4671	.	.
O=C1CC2(CCCCC2)CC(=O)N1CCc1ccccc1	4	.	5.6	-27	3928	14	7
O=C(O)c1ccc2oc(=O)c(S(=O)(=O)c3ccc(F)cc3)cc2c1	11	3	0.0	-44	3340	0	10
Cc1ccccc1OCC(=O)Nc1nnc(-c2ccco2)s1	2	-17	2.4	-32	5716	-9	6
Cc1ccc(C)c(CSc2ncccc2C(=O)O)c1	-5	12	7.1	-29	2431	5	-3
COc1cccc(C=NNC(=O)CNC(=O)C2COc3ccccc3O2)c1O (stereo not given)	-3	.	2.3	.	.	-2	1
S=C(Nc1cc(Cl)cc(Cl)c1)N1CCN(c2ccccn2)CC1	-21	.	-1.8	0	5386	-1	12
Cc1nn(C(C)C(=O)NCCC2=CCCCC2)c(=O)c2nn(-c3ccccc3)c(C)c12 (stereo not given)	3	-3	0.9	-17	5775	0	-2
CC(C)c1ccc(NC(=O)c2cc(S(=O)(=O)N3CCCCC3)c[nH]2)cc1	9	-4	1.8	-26	5478	10	-2
Cc1ccc(C(C(=O)NC2CCCCC2)N2CCC3(CC2)OCCO3)cc1 (stereo not given)	-9	-1	-4.9	-15	4174	-1	-10
O=C(c1ccc(Cl)cc1)c1cnc2ccccn12	-1	4	7.3	-92	2336	11	16
COc1ccc(C(CNC(=O)CCc2ccsc2)N(C)C)cc1 (stereo not given)	9	3	4.5	-11	4297	5	2
O=C(c1ccccc1)N1CCN(CCc2ccccn2)CC1	0	4	-6.3	-23	3521	-3	8
CC(SC1=NCCS1)C(=O)Nc1nnc(-c2ccc(Cl)cc2)s1 (stereo not given)	-12	-6	-6.1	-18	5130	1	3
O=C(COC(=O)CNC(=O)c1ccccc1F)Nc1ccc(Cl)cn1	9	.	10	-22	5455	1	4
Cc1ccc(S(=O)(=O)N2CCC(C(=O)NCC3CCCO3)CC2)cc1 (stereo not given)	8	-7	2.5	-23	7749	8	10
Cc1ccccc1NC(=O)N(C(C)C)C(C)C	4	4	4.9	-13	2922	.	.
CCOC(=O)C1=C(C)N(Cc2ccccc2)C(=O)NC1c1ccccc1OS(=O)(=O)c1ccccc1[N+](=O)[O-] (stereo not given)	-4	0	4.0	3	3935	1	6
O=C(C1CC1)N1CCN=C1SCc1ccc(Cl)cc1	11	-3	2.5	-7	4190	-3	-3
CCNC(=O)CN(C1CCCCC1)S(C)(=O)=O	1	6	3.1	1	2586	12	4
CCc1nnc(NC(=O)CSc2nnc(CNC(=O)c3ccc(OC)c(OC)c3)o2)s1	-4	-14	-2.7	0	3295	-6	15
CCC/C(C)=C/c1ccc(CC)cn1	-2	-9	-0.4	-27	4161	12	6
Cc1ccc(OCC(=O)NN=C2c3ccccc3-c3ccccc32)cc1	-12	-4	5.0	-10	23454*	2	2
Cc1ccc(-n2nc(C)cc2Nc2ncc(Cl)cc2Cl)cc1	3	-3	7.9	5	2063	10	12
COc1ccc2c(c1)CCC/C2=N/OC(=O)c1ccccc1OC	.	5	.	-4	3475	.	.

Six entries already listed, ordered by length of the SMILES, low to high.
SMILES	ugtP null kill	BJeLR lethal	RN4220 kill	PrP UTR inh	Autofluor counter	Mtb hypoxia rep	Mtb hypoxia rep growth
CCC/C(C)=C/c1ccc(CC)cn1	-2	-9	-0.4	-27	4161	12	6
CCNC(=O)CN(C1CCCCC1)S(C)(=O)=O	1	6	3.1	1	2586	12	4
O=C(C1CC1)N1CCN=C1SCc1ccc(Cl)cc1	11	-3	2.5	-7	4190	-3	-3
COc1ccc2c(c1)CCC/C2=N/OC(=O)c1ccccc1OC	.	5	.	-4	3475	.	.
Cc1ccc(OCC(=O)NN=C2c3ccccc3-c3ccccc32)cc1	-12	-4	5.0	-10	23454*	2	2
CCOC(=O)C1=C(C)N(Cc2ccccc2)C(=O)NC1c1ccccc1OS(=O)(=O)c1ccccc1[N+](=O)[O-] (stereo not given)	-4	0	4.0	3	3935	1	6

New compounds follow
SMILES	ugtP null kill	BJeLR lethal	RN4220 kill	PrP UTR inh	Autofluor counter	Mtb hypoxia rep	Mtb hypoxia rep growth
Cc1ccn2c(C(=O)N/N=C/c3ccc(Cl)cc3)c(C)nc2c1	.	20	.	-26	3785	.	.
COc1cc(OC)cc(C(=O)N[C@H](C(=O)Nc2nc(-c3ccc(F)c(F)c3)cs2)C(C)C)c1	.	-8	.	-12	2695	.	.
COc1ccc(/C=C(\NC(=O)c2ccc(C)cc2)C(=O)NCC2CCCO2)cc1 (stereo not given)	7	-3	2.6	-20	1898	-4	-2
CC(C)OCCCNC(=O)c1ccccc1NC(=O)C1=CSCCO1	-18	-3	-3.8	-16	5397	-13	-1
CN1N=C(/C=C/c2ccccc2)CCC1=O	.	7	.	-57	2548	.	.
CCc1ccccc1NC(=O)c1cc(-c2ccc3c(c2)OCO3)on1	-7	-8	-3.9	-35	3801	-10	5
CCOC(=O)Cn1c(=N)n(CCOc2ccc(F)cc2)c2ccccc21	12	-12	5.7	-12	3969	13	-12
CC(C)(C)c1cc(NC(=O)CSc2nnc(N)s2)n(-c2ccccc2)n1	12	0	7.9	-26	6832	1	-4
Cc1cc(N2CCCC(C(=O)Nc3ccc4c(c3)CCC4)C2)n2ncnc2n1 (stereo not given)	5	-6	3.0	-10	15395	4	2
CC1CCN(C(=O)CSc2nnc(-c3cccnc3)n2C2CCCCC2)CC1	1	-1	3.7	-3	17010*	3	3
Cc1ccc(OCCNC(=O)c2ccccc2O)cc1	10	-11	21	-9	4460	16	4
CCn1cc(C(=O)N2CCc3ccccc32)c(=O)c2cc(S(=O)(=O)N3CCCC3)ccc21	7	2	-0.6	-18	2592	5	-1
Cc1noc(C(=O)NCC2CCCO2)c1Cl (stereo not given)	5	11	2.1	-9	5554	8	3
O=C(/C=C/c1cccc([N+](=O)[O-])c1)OC1CCCCC1=O (stereo not given)	3	-4	4.1	-18	1962	-9	11
O=C(c1cc(C2CC2)nc2ccc(Br)cc12)N1N=C(C(F)F)CC1(O)C(F)F (stereo not given)	-34	1	-3.3	-21	22047*	3	17
COc1ccc(-c2cc(C(F)(F)F)c(C#N)c(SCC(=O)Nc3ccccc3C#N)n2)cc1	-6	-1	-14	.	.	16	9
CN(C)c1ccc(C=C2C(=O)NC(=O)N(CCc3ccc(F)cc3)C2=O)cc1	8	.	8.0	.	.	-2	5
CNC(=S)/N=C/NOCc1c(Cl)cccc1Cl	.	1	.	-7	3828	.	.
CCOc1ccc(NC(=O)COC(=O)CCS(=O)(=O)c2ccc(C)cc2)cc1	-10	-2	-1.6	-10	2528	0	6
COC(=O)c1cc(C#N)c(Oc2ccccc2OC)nc1C	1	-2	1.4	-12	2671	.	.
COc1ccc(NC(=O)C(F)(F)F)cc1OC	-3	12	-1.4	-22	2655	.	.
O=c1c2c3c(sc2nc(NCCO)n1CCc1ccccc1)CCCCC3	-15	-3	1.2	0	2251	5	9
CN(CCC1CCOCC1)Cc1cn[nH]c1-c1ccc(-c2ccccc2)cc1	10	5	-1.2	-28	3645	2	12
Cc1ccc(S(=O)(=O)N(CC(=O)N2CCC(C)CC2)Cc2ccccc2F)cc1	9	-8	8.3	-34	7711	19	5
CCNC1CCC(Nc2ccnc3cc(Cl)ccc23)CC1 (stereo not given)	3	.	0.7	-6	2948	16	7
O=C(OCc1c(F)cccc1Cl)c1cnc(Cl)c(Cl)c1	-17	-1	4.4	-6	4085	-4	-4
Cc1ccc(N2C(=O)CCC2=O)c(C)c1	1	1	5.1	-20	6129	7	-14
